Compound activity as filed in PubChem BioAssay.
AmpC inh no det: Promiscuous and Specific Inhibitors of AmpC Beta-Lactamase (assay without detergent) | P00811 | AmpC nitrocefin hydrolysis, absorbance 480 nm, no detergent; potencies from a single point are estimates | Potency, µM (series often up to 28.7 µM), for the others: at the top dose activity change, negative = inhibition | hit rate 1.8% among 71,000 | AID 585, 2007; active = falling curve, for most hits resting on a single point; inconclusive = weak or doubtful change; inactive = flat or rising curve; note: % of control where 0% means no effect; about half of the hits show no inhibition at the top dose; a quarter of the inactives give rising signals
Target sequence (P00811 whole entry, looked up): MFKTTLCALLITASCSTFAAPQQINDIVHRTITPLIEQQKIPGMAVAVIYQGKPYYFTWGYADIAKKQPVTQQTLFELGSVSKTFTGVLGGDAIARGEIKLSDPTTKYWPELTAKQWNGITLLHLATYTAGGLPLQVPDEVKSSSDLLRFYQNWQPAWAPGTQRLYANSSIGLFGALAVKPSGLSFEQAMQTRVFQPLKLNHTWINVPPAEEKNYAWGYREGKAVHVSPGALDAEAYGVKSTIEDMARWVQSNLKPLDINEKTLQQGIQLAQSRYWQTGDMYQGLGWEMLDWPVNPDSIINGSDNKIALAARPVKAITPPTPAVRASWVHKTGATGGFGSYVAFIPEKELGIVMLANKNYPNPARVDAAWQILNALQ
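Enzyme, pH 7.0 phosphate. Compound titrations were pre-incubated with AmpC for 15 min at room temperature before nitrocefin (stock 800 uM) addition; product formation was recorded at 480 nm every 20 s for 4 min.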
Active calls of the source: *; ? = inconclusive; [ ] = remark or other dose. Potency is the fitted concentration of half-maximal effect. Not all compounds are listed; count on the stated rates, not on these rows.

SMILES	AmpC inh no det
CCOc1ccc(C(C#N)N2CCOCC2)cc1OC (stereo not drawn)	10%
COc1ccc(OC)c(S(=O)(=O)Nc2ccc3oc4c(c3c2)C(=O)CCC4)c1	105%
COC(=O)CCC(=O)c1oc2ccc(Cl)cc2c1NC(=O)CCCN1C(=O)c2ccccc2C1=O	67%
CCOC(=O)CNC(=O)CSc1ncnc2c1cnn2-c1ccc(Cl)cc1	-5%
Cc1nnc(NC(=O)c2ccc(C)c(S(=O)(=O)N3CCCCCC3)c2)s1	42%
CC(=O)c1ccc(N2C(=O)NC3(CCCCC3)C2=O)cc1	0%
Nc1nnc(COc2cccc(C(F)(F)F)c2)s1	2%
CC(C(=O)Nc1sccc1C(N)=O)N1C(=O)C2CC=CCC2C1=O (stereo not drawn)	1%
COc1ccc(Cc2nnc(SC)[nH]c2=O)cc1OC	-17%
CC1Cc2ccccc2N1C(=O)Cn1nnc(-c2ccccc2NC(=O)C2CCC2)n1 (stereo not drawn)	-1%
COC(=O)c1cc(=O)c2ccc(OC)cc2o1	2%
Cn1nc(-c2ccc(Cl)cc2)c2cc(C(=O)N3CCCC3)sc21	42%
Cc1ccc(N=Cc2nc(-c3ccco3)oc2O)cc1	-17%
COc1ccc(-c2nnc(-c3ccc(N)cc3)o2)cc1	23%
O=C(CSc1nnc(-c2cccnc2)n1Cc1ccco1)c1ccc2ccccc2c1	-2%
O=C(C1COc2ccccc2O1)N1CCn2c(nc3ccccc32)C1 (stereo not drawn)	34%
Cc1ccc(N=C2NC(=O)CS2)c(C)c1	7%
O=C1[C@@H]2[C@@H]3C=C[C@H]([C@@H]2C(=O)N1CN1CCSCC1)[C@@H]1[C@@H]2C(=O)N(CN4CCSCC4)C(=O)[C@@H]2[C@H]31	8%[5.75 µM]
CCOC(=O)Nc1ccc2c(C)cc(=O)oc2c1	2%
CNS(=O)(=O)c1cccc(C(=O)NCC(c2cccs2)N(C)C)c1 (stereo not drawn)	-2%
C=CCn1c(CNC(=O)CCC)nc2ccccc21	8%
CCCCn1nnnc1NCc1ccc(OC)c(OC)c1OC	24%
COc1ccc(C(=O)N2CCN=C2SCc2cccnc2)cc1OC	36%
CC(=O)OC1c2ccccc2C(=O)N1Cc1ccccc1Cl (stereo not drawn)	4µM*[single pt active]
COCCCNC(=O)c1cc(C)nc2ccc(F)cc12	3%
CN1C(=O)CC(N2CCN(CCN=CC3=C(O)CC(C)(C)CC3=O)CC2)C1=O (stereo not drawn)	-2%
CCOCC(=O)Nc1cccc(Br)c1	-1%
COc1ccc(OC)c(S(=O)(=O)N2CCN(c3c(C)cccc3C)CC2)c1	9%
COc1ccccc1C(=O)Nc1ccc2c(c1)nc(CCNC(C)=O)n2C	14%
O=S(=O)(c1cccc(S(=O)(=O)N2CCC(n3nnc4ccccc43)CC2)c1)N1CCCCC1	10%
CC=O	4%
O=c1cccc2n1CC1CNC[C@H]2C1	8%
CCOc1ccccc1C(=O)N(CCC(=O)OC)c1ccccn1	6%
C=CCNC(=O)C1CCCN(S(C)(=O)=O)C1 (stereo not drawn)	-6%
COC(=O)c1cc(Br)c(=O)n(-c2ccccn2)c1	-13%
CCCOCC1CC2(SC(=Nc3ccc(C)cc3)NC2=O)C(=O)O1 (stereo not drawn)	-2%
N#CC1=C(SCc2ccccc2)NC(=O)CC1c1ccc(O)cc1 (stereo not drawn)	?
CCOC(=O)CSc1nnc(CSc2nc(N)c3c(C)c(C)sc3n2)n1-c1ccccc1	129%
CC1CCCN(C(=O)CN2C(=O)c3ccccc3C2=O)C1 (stereo not drawn)	27%
Cn1cccc1Cc1nnc(SCC(=O)NC2CCCCC2)n1-c1ccc(F)cc1	112%

Part of the list above, reformatted:
| structure | AmpC inh no det |
| --- | --- |
| CCOC(=O)Nc1ccc2c(C)cc(=O)oc2c1 | 2% |
| CNS(=O)(=O)c1cccc(C(=O)NCC(c2cccs2)N(C)C)c1 (stereo not drawn) | -2% |
| C=CCn1c(CNC(=O)CCC)nc2ccccc21 | 8% |
| CCCCn1nnnc1NCc1ccc(OC)c(OC)c1OC | 24% |
| COc1ccc(C(=O)N2CCN=C2SCc2cccnc2)cc1OC | 36% |
| CC(=O)OC1c2ccccc2C(=O)N1Cc1ccccc1Cl (stereo not drawn) | 4µM*[single pt active] |
| COCCCNC(=O)c1cc(C)nc2ccc(F)cc12 | 3% |
| CN1C(=O)CC(N2CCN(CCN=CC3=C(O)CC(C)(C)CC3=O)CC2)C1=O (stereo not drawn) | -2% |
| CCOCC(=O)Nc1cccc(Br)c1 | -1% |
| COc1ccc(OC)c(S(=O)(=O)N2CCN(c3c(C)cccc3C)CC2)c1 | 9% |
| COc1ccccc1C(=O)Nc1ccc2c(c1)nc(CCNC(C)=O)n2C | 14% |
| O=S(=O)(c1cccc(S(=O)(=O)N2CCC(n3nnc4ccccc43)CC2)c1)N1CCCCC1 | 10% |
| CC=O | 4% |
| O=c1cccc2n1CC1CNC[C@H]2C1 | 8% |
| CCOc1ccccc1C(=O)N(CCC(=O)OC)c1ccccn1 | 6% |
| C=CCNC(=O)C1CCCN(S(C)(=O)=O)C1 (stereo not drawn) | -6% |
| COC(=O)c1cc(Br)c(=O)n(-c2ccccn2)c1 | -13% |
| CCCOCC1CC2(SC(=Nc3ccc(C)cc3)NC2=O)C(=O)O1 (stereo not drawn) | -2% |
| N#CC1=C(SCc2ccccc2)NC(=O)CC1c1ccc(O)cc1 (stereo not drawn) | ? |

(listing goes on)
SMILES	AmpC inh no det
CCC(=O)N1CCc2cc(S(=O)(=O)NCCCN3CCN(Cc4ccccc4)CC3)ccc21	62%
COc1ccccc1CNc1ncnc2ccc(-c3cccc(NS(C)(=O)=O)c3)cc12	-2%
Cc1cc(NC(=O)CCC(=O)N(c2ccc(F)cc2)C(C(=O)NC2CCCC2)c2ccncc2)no1 (stereo not drawn)	54%
O=c1c2ccccc2nc2n1CCCCN2	-5%
Cc1cccc(OCC2=NS(=O)(=O)c3ccccc3N2)c1	?
COCCn1c(=O)c(-c2ccc(Cl)cc2)nc2cnc(OC)nc21	0%
CC(C)c1nnc(NC(=O)CC(=O)Nc2ccccc2C(=O)O)s1	-4%
Cc1cccc(N2CCN(C(=O)c3ccc(CS(=O)(=O)c4ccccc4C)o3)CC2C)c1 (stereo not drawn)	109%
CCCc1cc(=O)[nH]c(SCC(=O)c2ccc(S(=O)(=O)N3CCCC3)cc2)n1	-6%
C=C(C)c1ccc(C(C)(C)NC(=O)N2CCN(C)CC2)cc1	-8%
O=C(NCc1ccccn1)c1cn(Cc2ccccc2)nn1	3%
Cc1ccc2cc3c(NC(=O)c4cccnc4)nn(C)c3nc2c1	12%
O=C(c1cccs1)N(CCO)Cc1cc2cc3c(cc2[nH]c1=O)OCCO3	-12%
Nc1nnc(SCC(=O)N2CCN(c3ccccc3)CC2)s1	1%
O=C(Nc1c(C(=O)N2CCCC2)cnn1-c1ccccc1)c1cccc(F)c1	20%
CN(C)S(=O)(=O)c1ccc2c(c1)c(=O)c(C(=O)N1CCN(c3ccccn3)CC1)cn2C	44%
Cc1nc(NC(=O)CCC(=O)O)sc1C(=O)N(C)C	5%
COc1ccc(NC(=O)C(c2ccc(OC)cc2)N(C)C(=O)c2cnccn2)cc1 (stereo not drawn)	36%
CC(C)(C)C1CCc2nc(NC(=O)Cc3cn4ccsc4n3)sc2C1 (stereo not drawn)	28%
COc1ccc(S(=O)(=O)Cc2ccc(C(=O)NCc3ccc(F)cc3)o2)cc1	4µM*[single pt active]
COc1ccc(CC(NC(C)=O)C(=O)NC2CCN(C(=O)NCc3ccccc3)CC2)cc1OC (stereo not drawn)	11%
CCOc1ccccc1C(=O)NCC(=O)OCC(=O)c1ccc2c(c1)OCCO2	9%
CCOC(=O)C1CCCN(S(=O)(=O)c2cccc3cccnc23)C1 (stereo not drawn)	5%
COc1cc(C(=O)N(Cc2ccccn2)CC2CCCO2)cc(OC)c1OC (stereo not drawn)	13%
c1cn(-c2ncnc3ccc(-c4ccoc4)cc23)cn1	-14%
O=C(Nc1cccc2ncccc12)c1cc2ccccc2o1	-3%
CN(C)c1oc(-c2ccccc2Cl)nc1C#N	1%
COc1ccccc1NC(=O)CCn1c(=O)sc2ccccc21	-13%
COc1ccc(NS(=O)(=O)c2ccc(NS(C)(=O)=O)cc2)cc1	-8%
CCCCS(=O)(=O)Nc1ccc(Cc2ccncc2)cc1	-5%
CCCCn1c(N)c(N(CCC(C)C)C(=O)CSc2nnc(C)s2)c(=O)[nH]c1=O	73%
O=C(c1nnc(-c2ccncc2)o1)c1ccccc1Cl	9%
CC(=O)N1CCc2cc(S(=O)(=O)NCCCOC(C)C)ccc21	-4%
CCCOc1ccc(C(=O)C(c2ccccc2)N2CCOCC2)cc1 (stereo not drawn)	79%
O=C(O)Cc1ccc(NC(=O)C2CCCCC2C(=O)O)cc1 (stereo not drawn)	-9%
O=c1ccc2cc(S(=O)(=O)N3CCOCC3)ccc2o1	8%
Cc1ccccc1NC(=O)N1CCCC(c2nc(-c3ccc(F)cc3)no2)C1 (stereo not drawn)	31%
O=C(O)c1ccc(S(=O)(=O)N2CCC(c3nc(-c4ccccc4Cl)no3)CC2)cc1	6%
CCC(=O)Nc1cc2c(cc1C(=O)c1ccccc1)OCCO2	0%
CCC(c1nnnn1C(C)(C)C)N(CCOC)Cc1cc2cccc(C)c2n2nnnc12 (stereo not drawn)	4%

Single entries from the entries so far.
`CCCCS(=O)(=O)Nc1ccc(Cc2ccncc2)cc1` @ AmpC inh no det: -5%
`COc1cc(C(=O)N(Cc2ccccn2)CC2CCCO2)cc(OC)c1OC` (stereo not drawn) @ AmpC inh no det: 13%

Later entries:
SMILES	AmpC inh no det
COC(=O)c1cccc(C(=O)Nc2ccc(C)cc2)n1	23%
COc1cccc(NC(=O)c2nc3ncccn3n2)c1	-6%
Cn1c(=O)c(CCc2ccccc2)nc2cnc(OCc3ccccc3)nc21	6%
COc1cc(CO)cc(Br)c1OCC(=O)N1CCCCC1	5%
CC1(C)CC(CCC(=O)Nc2ccc(S(N)(=O)=O)cc2)C(=O)O1 (stereo not drawn)	-3%
NC(=O)c1ccc(-n2nnnc2Oc2ccccc2)cc1	2%
COc1ccc(C/C(N)=N/n2cnnc2)cc1Cl	7%
COC(=O)c1cc(=O)nc2sc(-c3ccccc3)nn12	4%
O=C(CCc1ccccc1)Nc1nc2n(n1)C(c1ccccc1)CC(=O)N2 (stereo not drawn)	-19%
Cc1ccc(-c2cc(C(F)F)n3ncc(C(=O)N4CCN5CCCC5C4)c3n2)cc1 (stereo not drawn)	79%
CCOC(=O)C1=C(C)Nc2nc(C)nn2C1c1ccc(OC)c(OC)c1 (stereo not drawn)	5%
O=c1c(-c2ccc(F)cc2)nc2cnc(N3CCNCC3)nc2n1C1CC1	20%
COc1cccc(C2CC(c3ccccc3Cl)Nc3ncnn32)c1 (stereo not drawn)	58%
O=C(NCCO)c1ccc2[nH]c3c(c2c1)CCCC3	2%
O=C(CSCc1ccccc1)NC1CCSC1=O (stereo not drawn)	-14%
CCOCCn1c(N(C)Cc2ccccc2)nc2c1c(=O)[nH]c(=O)n2C	26%
Cc1c(NC(=O)C2CC(c3c(F)cccc3Cl)=NO2)c(=O)n(-c2ccccc2)n1C (stereo not drawn)	4%
O=C(O)COc1ccc(-c2nnn(CC(=O)O)n2)cc1	-4%
Cc1ccc(NC(=O)c2noc3c2CCCCC3)cc1C	2%
CCOc1ccccc1NC(=O)Cn1c(C)cc(COC)c(C#N)c1=O	16%
O=C(Cn1cnc2ccccc2c1=O)NCCC(=O)Nc1ccc2c(c1)OCCO2	-11%
CCn1cc(C(=O)NCc2ccc(OC)cc2OC)c(=O)c2ccc(C)nc21	104%
COc1ccc(-n2c(COc3ccc(C)cc3)nnc2SCC(N)=O)cc1	68%
O=C(NCc1ccco1)c1ccc2snnc2c1	-13%
CCCn1c2c(c(O)c(C(=O)NC)c1=O)CCCC2	37%
CCOC(=O)c1ccc(S(=O)(=O)N2CCN(CC(=O)NC(=O)NC3CCCCC3)CC2)cc1	115%
Cc1ccc(-c2nc3ccccc3c(=O)n2-n2cccc2)cc1	14%
CCN1CCN(C(=O)C2CCN(Cc3nc(-c4ccc(Cl)cc4)oc3C)CC2)CC1	35%
Cc1ccc(C(=O)Nc2ccccc2C(N)=O)o1	-8%
FC(F)(F)c1cccc(NCc2cn3cccnc3n2)c1	10%
Nc1ncnc2c1nc(-c1ccccc1)n2[C@H]1O[C@@H](CO)[C@@H](O)[C@H]1O	-4%[5.75 µM]
Cc1nc2cnc(N3CCNCC3)nc2n(C2CC2)c1=O	15%
CCOC(=O)CSCC(=O)Nc1cc(C)ccc1C	1%
CCc1nnc(NC(=O)CSc2nnc(CCc3nc4ccccc4[nH]3)n2C)s1	22%
CCCc1cc(=O)[nH]c(=S)[nH]1	-3%
COc1ccc(C)cc1NC(=O)CCC(=O)Nc1ccc2nc(N3CCN(C)CC3)cc(C)c2c1	101%
COc1c(Br)cc2c(C)c(C(=O)N3CCOCC3)oc2c1Br	18%
Cc1cnc(C(=O)Nc2ccccc2-c2nnn(CC(=O)NC3CCCC3)n2)cn1	23%
CC(=O)Nc1nnc(S(N)(=O)=O)s1	-6%[12.8 µM]
CCC(C)N1C(=O)c2ccccc2C1C(=O)NC1CCCCCC1 (stereo not drawn)	10%
Nc1cc([N+](=O)[O-])ccc1O	-13%
C=CCSc1nnc(-c2c[nH]c3ccccc23)n1CCOC	8%
CCNc1ncc2nc(-c3cccs3)c(=O)n(CCC#N)c2n1	55%
CCC(=O)/C=C1\Sc2ccc(OC)cc2N1CC	27%
O=C1N(CCCN2C(=O)C3(OCCO3)c3ccccc32)c2ccccc2C12OCCO2	66%
COc1ccc(Cl)cc1Nc1nc(N2CCCC2)nc(N2CCCC2)n1	0%
COc1ccc(C(c2nnnn2C(C)(C)C)N2CCN(c3nc4ccccc4s3)CC2)cc1OC (stereo not drawn)	128%
